Sfp inh: blocks B. subtilis Sfp PPTase activity. Biochemical Sfp PPTase activity, qHTS. Q9F4F7. hit rate 3.5% among 310,000. Potency, µM, for the others: max response, negative = inhibition, usual class: inhibitors; active means well fitted inhibition curve with a large enough effect; inconclusive means small, poorly fitted or top-dose-only effect, or another doubt; inactive means no such curve, though single readings can be large or run the other way;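 further: the enzyme is Sfp with the accession as filed and its product quenches rhodamine fluorescence; potency means the concentration at half of the fitted maximal effect; 0% = enzyme reaction without inhibitor and -100% = no enzyme wells; top concentration of the series not given in the record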
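Reaction rates are the 30-min fluorescence difference (ex 525, em 598 nm) in wells containing 15 nM Sfp, 5 uM rhodamine-CoA and 12.5 uM BHQ-2-YbbR at pH 7.6 with 10 mM MgCl2.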
D2 PAM: human D2 receptor positive allosteric modulation; DiscoveRx D2 beta-arrestin cells, luminescence, 90 min; 100% = 57 uM dopamine signal; potentiation, % (test concentration not listed); P14416; hit rate 0.23% among 360,000; AID 624464; active = potentiation of 50% or more; inconclusive = 30% to 50%; inactive = 30% or less;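 further: compound concentration not given in the record; tested on top of an EC20 dose of dopamine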
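PathHunter beta-arrestin assay in DiscoveRx D2 cells. Compounds were added with an EC20 of dopamine (50 nM final) for 90 min at 37 deg C. Luminescence was read 1 h after detection reagent, with 57 uM dopamine as the EC100 control.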
Six1-Eya2 inh: inhibitors of human Six1/Eya2 interaction; AlphaScreen GST-Six1/His-Eya2 binding, biochemical; hits give low values; control for the full effect not named in the record; activity change, % (concentration not given with the values); hit rate 0.56% among 360,000; AID 651725; in the data active = activity change below about -65%; inconclusive = about -30% to -65%; inactive = above about -30%; further: on the % scale 0 is the no-effect control and ±100 the full control effect
Target sequence (O00167 whole entry, looked up): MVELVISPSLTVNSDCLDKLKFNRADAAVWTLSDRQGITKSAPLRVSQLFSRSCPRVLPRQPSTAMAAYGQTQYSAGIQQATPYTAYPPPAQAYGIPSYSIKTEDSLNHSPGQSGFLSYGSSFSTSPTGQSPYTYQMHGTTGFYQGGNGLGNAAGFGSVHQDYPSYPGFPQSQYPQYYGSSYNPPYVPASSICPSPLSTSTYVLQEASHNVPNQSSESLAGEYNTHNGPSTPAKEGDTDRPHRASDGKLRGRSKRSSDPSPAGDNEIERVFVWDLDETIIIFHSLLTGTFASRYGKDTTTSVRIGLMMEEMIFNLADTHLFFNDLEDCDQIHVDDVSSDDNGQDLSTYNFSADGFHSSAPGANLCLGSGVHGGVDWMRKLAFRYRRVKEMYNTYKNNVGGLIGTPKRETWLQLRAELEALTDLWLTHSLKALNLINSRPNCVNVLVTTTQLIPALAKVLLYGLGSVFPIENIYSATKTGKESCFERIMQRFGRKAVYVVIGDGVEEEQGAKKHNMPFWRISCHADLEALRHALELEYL
Target sequence (Q15475 whole entry, looked up): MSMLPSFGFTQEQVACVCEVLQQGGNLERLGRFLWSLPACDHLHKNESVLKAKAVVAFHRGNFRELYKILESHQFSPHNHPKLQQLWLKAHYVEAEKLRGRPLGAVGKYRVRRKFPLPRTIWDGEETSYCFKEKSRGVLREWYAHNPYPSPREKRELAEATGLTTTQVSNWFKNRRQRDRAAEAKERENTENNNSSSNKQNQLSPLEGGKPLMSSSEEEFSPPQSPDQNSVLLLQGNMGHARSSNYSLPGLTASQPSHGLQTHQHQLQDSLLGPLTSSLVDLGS
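Six1/Eya2 binding was read as AlphaScreen signal after compounds were pinned into GST-Six1 plus His-tagged Eya2 (5X stock 250/500 nM) in pH 8.0 Tris/NaCl/TCEP buffer, beads added, then incubated 1 h, 37 C, dark.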
CtBP-E1A inh: CtBP/E1A binding inhibition; AlphaScreen GST-E1A/His-CtBP binding, 1536-well; hits give low values; control for the full effect not named in the record; activity change, % (no concentration beside the values); hit rate 0.49% among 340,000; in the data active means activity change below about -65%; inconclusive means about -30% to -65%; inactive means above about -30%; further: on the % scale 0 is the no-effect control and ±100 the full control effect; compound concentration not given in the record
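GST-E1A and His-tagged CtBP (125 nM each as 5X stock) were preincubated with pin-transferred compound for 2 h at 37 °C in the dark, then glutathione donor and nickel acceptor beads were added for 1 h before AlphaScreen reading.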
D2 ag: agonists of human D2 dopamine receptor (beta-arrestin); P14416; DiscoveRx PathHunter D2 beta-arrestin, luminescence, 90 min; 100% = 57 uM dopamine signal; activation, % (test concentration not listed); hit rate 0.084% among 360,000; AID 624465; in the data active = activation above about 40%; inconclusive = about 15% to 40%; inactive = below about 15%; further: compound concentration not given in the record; the text of the record calls up to 30% inactive
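DiscoveRx PathHunter D2 beta-arrestin cells (2,100/well) attached overnight, then compound-stimulated 90 min at 37 C in HBSS/10 mM HEPES/0.1% Tween-20 buffer; beta-galactosidase complementation read by luminescence after 1 h at ambient temperature. Dopamine 57 uM final (EC100) as control.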
TRPV1 potentiator: potentiators of human vanilloid receptor 1 (TRPV1); potentiation, % at 8.33 µM; TRPV1-expressing cells, Fluo-8 calcium influx, capsaicin EC20 potentiation; host cell line not named in the record; control for the full effect not named in the record; AID 540277; Q8NER1; hit rate 0.02% among 320,000; active means potentiation above 80%; inconclusive means 30% to 80%; inactive means below 30%; further: 0% is about no effect
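TRPV1-expressing cells were cultured overnight at 35.5C and loaded with Fluo-8 calcium dye for 40 to 90 min at room temperature. After a 10 s baseline, compound was added and calcium influx was read kinetically for 3 min (ex 480/em 520 nm).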
PINK1 expr mod: changes PINK1 expression. PINK1 immunofluorescence, high-content cytometry, 24 h. Potency, µM (highest dose often 76.6 µM), without a hit: top-dose activation (PINK1 increase), most hits filed as activators. hit rate 0.2% among 410,000. AID 624263; active = well fitted activation curve with a large enough effect; inconclusive = small, poorly fitted or top-dose-only effect; inactive = flat fitted curve, though single readings scatter; cell line not stated here;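 further: potency means the concentration at half of the fitted maximal effect; % of control where 0% means no effect; nearly all actives have a fitted effect of over 65% in size; a mitochondrial uncoupler was the plate control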
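PINK1 protein level read as immunofluorescence by microplate cytometer in a fixed, stained stable cell line after 24 h exposure to five compound concentrations, with CCCP as control.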
* hit, by the source's call; ? = inconclusive; nt = no result given; & = joins results of further samples; [ ] = dose if it differs, or a comment.

SMILES	Sfp inh	D2 PAM	Six1-Eya2 inh	CtBP-E1A inh	D2 ag	TRPV1 potentiator	PINK1 expr mod
Nc1c(-c2cccc(Cl)c2)cnn1-c1cccc(C(F)(F)F)c1	2%	3	5	18	-1.6	-24	?
COc1ccc(CNC(=O)c2ccc(S(=O)(=O)NCc3ccco3)cc2)cc1	nt	-4	-4	nt	-1.7	22	2.5%
O=C1NC[C@H](CCCCN2C[C@H](Cc3ccccc3)N(CCc3ccccc3)C(=O)C2=O)N(CCC2CCCCC2)C1=O	nt	nt	-10	3	nt	nt	8.8%
Cc1ccccc1N=C(NOCc1ccccc1)c1nonc1N	4%	-33	0	6	-3.6	1	0.5%
Cc1ccc(/C=C/C(=O)NCCCn2ccnc2)cc1	14%	-10	-1	-10	-0.9	11	-0.6%
O=c1c2ccccc2c(C=Nc2ccccc2O)c(O)n1-c1nccs1	10%	-15	-9	nt	-3.3	-38	-0.2%
Cc1cc(C)cc(C(=O)Nc2ccc(N3CCN(C(=O)c4ccco4)CC3)cc2)c1	-4%	1	3	-7	-3.5	2	-1.0%
COc1cccc(C2=NN(C(=O)c3cccs3)C(O)(C(F)(F)F)C2)c1 (stereo unspecified)	45µM*	-5	-4	0	-3.3	-11	1.7%
COc1cc(C(O)c2nc(-c3cccc(C(F)(F)F)c3)cs2)ccc1F (stereo unspecified)	nt	2	12	5	5.7	nt	8.0%
CCOC(=O)[C@@H](NC(=O)CC[C@H]1O[C@@H](n2cc(C)c(=O)[nH]c2=O)C[C@@H]1O)C(C)C	nt	nt	0	-1	-3.1	nt	1.0%
COC(C/C=C\[C@H](O)[C@H](C)OCc1ccccc1)OC	nt	2	1	5	2.6	nt	0.7%
COC(=O)c1cc(=O)n(Cc2ccc3c(c2)OCO3)c(=Nc2ccc(F)cc2)s1	4%	-2	-1	5	-2.2	?	11%
Cc1ccc(OCCCN2C(=O)C(=O)c3cc(C)ccc32)cc1	-3%	-6	0	0	-4.2	-21	5.4%
O=[N+]([O-])c1cccc(-c2n[nH]c(=S)n2-c2ccc(Br)cc2)c1	-5%	-10	3	-6	-1.1	1	-1.6%
Cn1c(N)c(N=O)c(=O)n(C)c1=S	nt	-8	-10	-8	-4.2	nt	-2.3%
O=C(CCCN1C(=O)CSc2ncccc21)N1CCN(c2cccc(C(F)(F)F)c2)CC1	9%	-8	1	-3	2.4	5	-0.4%
CCN(c1ccccc1)c1cc2ccccc2c(=O)[nH]1	-10%	-10	-3	-2	-2.7	9	4.9%
CCC(CO)Oc1cc(NCc2ccccc2C(F)(F)F)c2ncn(C(C)C)c2c1 (stereo unspecified)	nt	-23	-12	0	1.4	nt	?
CCOc1ccc(Cn2nnc(C(=O)NCc3ccc(OC)cc3)c2N)cc1	7%	-2	-4	-1	-3.0	1	3.5%
CCS(=O)(=O)Nc1c(C(=O)OC)[nH]c2ccccc12	-3%	-3	9	-3	1.5	6	2.3%
COC(=O)c1cc(C(=O)N2CCc3ccccc32)cc([N+](=O)[O-])c1	-2%	6	-9	0	1.5	2	-0.1%
CCOC(=O)N1CCC(NC(=O)CCS(=O)(=O)c2ccc3c(c2)CCN3C(=O)CC)CC1	24%	4	6	-1	?	8	0.9%
O=C(CCC1CCCCC1)Nc1cc(C(F)(F)F)ccc1N1CCOCC1	nt	-6	16	-1	-4.2	1	5.6%
COc1cc(C)c(Cc2cnc(N)nc2N)cc1OC	-2%&14%	nt	nt	nt	nt	5	-0.7%
Cn1c(-c2ccccc2)cccc1=O	-4%	-9	-1	6	-2.9	-1	12%[38.3 µM]
Cn1c2ccc(F)cc2c2ncn(Cc3ccco3)c(=O)c21	50µM*	-9	-17	-21	0.8	-7	1.6%[38.3 µM]
C/C(Cl)=C/Cn1c(SCCN2CCOCC2)nc2c1c(=O)[nH]c(=O)n2C	4%	-7	-5	5	-1.8	-23	5.6%
CSCCC(NC(=O)/C(=C/c1ccco1)NC(=O)c1ccc(Br)o1)C(=O)O (stereo unspecified)	12%	1	-5	nt	-2.0	24	5.0%
Cc1ccc2cccc(Oc3ncnc4scc(-c5ccccc5)c34)c2n1	8%	-17	-11	-8	-1.2	3	-0.2%
c1ccc(-c2n[nH]c(-c3ccccc3)c2-c2nc3ccccc3[nH]2)cc1	14%	-12	-2	-1	-6.4	-3	-2.3%
O=NN(C(=O)NCc1cccnc1)C1CCCCC1	nt	0	8	-6	-4.4	nt	-0.5%
Cc1csc(NC(=O)c2cc(-c3ccco3)nc3ccccc23)n1	?	-2	?	-25	0.6	2	0.6%
O=C(c1cccs1)N1N=C(c2ccc(O)cc2)CC1c1ccccc1 (stereo unspecified)	18µM*	2	-19	-22	-1.4	-12	0.6%
O=C(O)c1ccc2[nH]c3c(c2c1)CCCC3	21%	1	-11	-14	2.3	-8	-0.3%
Cc1ccc(O)c(C(=O)c2cc(C#N)c(=O)n(-c3nccs3)c2)c1	50µM*	2	?	-6	-3.0	5	11%
Cc1ccc(C(=O)COC(=O)CCC(=O)Nc2cccc(Cl)c2)cc1[N+](=O)[O-]	3%	-47	0	-7	-13	-5	0.8%
Cc1cccnc1C(NC(=O)C1CCN(Cc2ccc(Cl)cc2)CC1)c1ccccc1 (stereo unspecified)	nt	-22	-6	-14	-6.6	nt	4.1%
COc1ccccc1C(=O)COC(=O)c1ccccc1OCC(=O)Nc1ccc(SC(F)F)cc1	-8%	-12	6	-2	-0.1	-3	4.7%
COc1ccccc1CNC(=O)CCCn1nc(C)n2ccnc2c1=O	-5%	-1	7	5	-3.0	-9	0.3%
CCCCC[C@@H]1CCCCC[C@@H](O)C[C@H](O)[C@H](O)/C=C/C(=O)O1	nt	nt	0	1	nt	nt	0.0%
O=C(NCCc1ccccc1)C(c1ccncc1)N(C(=O)c1csnn1)C1CC1 (stereo unspecified)	11%	13	2	3	-2.2	-10	6.2%
COc1ccc(CN(C)C(=O)c2cccc(NS(=O)(=O)c3ccccc3)c2)cc1F	6%	-8	0	-3	-1.9	26	0.2%
CN(Cc1ncc[nH]1)Cc1cn(-c2ccccc2)nc1-c1ccc2c(c1)OCO2	11%	-22	-3	-14	-0.4	-16	0.4%
CCCOc1ccc(C(=O)NCc2cccnc2)cc1	6%	-13	-1	6	-0.1	-12	0.5%[38.3 µM]
O=C(Nc1ccc2c(c1)OCO2)C1Cc2c(-c3ccc4c(c3)OCO4)ccnc2O1 (stereo unspecified)	nt	-6	-22	-19	2.0	nt	1.9%
COC(=O)c1nn(-c2ccc3c(c2)OCO3)cc1O	8%	-11	-15	-12	-4.2	27	7.2%[38.3 µM]
CC1Cc2nc(SCC(=O)OCc3ccccc3)n(C)c(=O)c2S1 (stereo unspecified)	-8%	-11	-2	-4	-1.0	20	-1.2%
COc1ccc(S(=O)(=O)N(C)C)cc1NC(=O)CSc1nnc(-c2cccnc2)o1	-5%	0	4	2	1.1	?	-1.5%
O=C(COC(=O)c1ccc2ncsc2c1)NC(=O)c1ccccc1	-10%	-2	7	-4	0.3	19	13%
Cc1ccc(N(CC(=O)NCc2ccc(F)cc2)C(=O)CCC(=O)Nc2ccccn2)cc1C	8%	-21	0	-5	-11	7	-1.3%
Going on with the list.
SMILES	Sfp inh	D2 PAM	Six1-Eya2 inh	CtBP-E1A inh	D2 ag	TRPV1 potentiator	PINK1 expr mod
CCCCn1c(CCn2nc(C)c(Br)c2C)n[nH]c1=S	3%	7	1	4	0.7	-17	-0.1%[38.3 µM]
Cc1cc(C(=O)N2CCN(CCc3ccccc3)CC2)no1	13%	-16	1	0	-1.3	-13	-2.2%[38.3 µM]
O=[N+]([O-])c1ccc(-c2nc(NCc3cccnc3)c3ccccc3n2)cc1	0%	-5	5	3	-1.8	0	8.3%
CCOC(=O)N1CCN(C(=O)c2ccc3c(=O)n(-c4ccc(OC)cc4)c(=S)[nH]c3c2)CC1	-11%	-6	-1	-1	-3.3	-2	0.5%
C=CCNC(=O)C(C#N)c1nc2ccccc2nc1N1CCCCCC1 (stereo unspecified)	-4%	-13	?	?	-2.8	-13	-2.1%
CC1(C)CC(=O)C=C(Nc2ccc(C(=O)O)c(O)c2)C1	13%	-4	4	1	-1.3	3	1.7%
O=C(COC(=O)Cc1ccsc1)Nc1cccc(Cl)c1	nt	-2	10	3	-0.5	-11	0.1%
O=C(Nc1cnn(Cc2ccc(F)cc2)c1)c1cc(-c2ccco2)on1	16%	2	0	1	7.2	-9	19%
COc1ccccc1-c1ccc2nnc(SCC(=O)N3CCCC3)n2n1	nt	-2	12	0	-1.4	11	-0.3%
C/C(=N\NC(=O)c1ccccc1)c1c(C)[nH]n(-c2ccccc2)c1=O	22%	-6	-15	-23	-2.2	5	-0.4%

Four entries picked at random from those above, as already listed:
SMILES	Sfp inh	D2 PAM	Six1-Eya2 inh	CtBP-E1A inh	D2 ag	TRPV1 potentiator	PINK1 expr mod
COc1cccc(C2=NN(C(=O)c3cccs3)C(O)(C(F)(F)F)C2)c1 (stereo unspecified)	45µM*	-5	-4	0	-3.3	-11	1.7%
O=C(COC(=O)c1ccc2ncsc2c1)NC(=O)c1ccccc1	-10%	-2	7	-4	0.3	19	13%
O=C(NCCc1ccccc1)C(c1ccncc1)N(C(=O)c1csnn1)C1CC1 (stereo unspecified)	11%	13	2	3	-2.2	-10	6.2%
O=C(c1cccs1)N1N=C(c2ccc(O)cc2)CC1c1ccccc1 (stereo unspecified)	18µM*	2	-19	-22	-1.4	-12	0.6%

(listing goes on)
SMILES	Sfp inh	D2 PAM	Six1-Eya2 inh	CtBP-E1A inh	D2 ag	TRPV1 potentiator	PINK1 expr mod
Cc1ccccc1NC(=O)Cc1cn(C)c2ccccc12	3%	-12	-2	-6	-1.2	-5	0.4%
Cc1ccc(NC(=O)C2C(c3ccccc3)C2(Cl)Cl)c(C)c1 (stereo unspecified)	2%	-9	1	11	-1.8	-11	-0.6%
COCCNC(=O)C1CCCN(C(=O)c2cc(C)nn2C(C)(C)C)CC1 (stereo unspecified)	nt	3	12	1	7.7	nt	1.1%
COc1ccccc1CN1CCSCC1	-9%	-1	-11	-3	0.1	6	-2.4%[38.3 µM]
Cc1cnc(C(=O)N(c2ccc(N3CCOCC3)cc2)C2C(=O)Nc3ccccc3N=C2c2ccc3c(c2)OCO3)cn1 (stereo unspecified)	nt	-3	-2	-5	1.7	nt	0.9%
COc1cccc(NS(=O)(=O)c2ccc3c(c2)NC(=O)C(C)C(=O)N3)c1 (stereo unspecified)	7%	0	-1	3	-2.8	16	-0.6%
Cc1cc(OCC(=O)c2ccc(F)cc2)ccc1N1C(=O)CCC1=O	26%	-16	-4	3	-3.6	-2	1.4%
C[C@H]1CN([C@@H](C)CO)C(=O)c2cccc(NC(=O)Nc3ccc(C(F)(F)F)cc3)c2O[C@@H]1CN(C)S(=O)(=O)c1ccccc1	nt	-4	-3	-28	3.2	nt	2.2%

Screening data from PubChem.
